# From PubChem BioAssay
# MARV entry inh = blocks Marburg virus binding to or entry into cells; Potency, µM (series often up to 37.8 µM), for the others: at the top dose activity change, negative = inhibition, hits mostly inhibitors; Marburg virus pseudotyped entry inhibition, cell reporter; control for the full effect not named in the record; about a third of the inactives were read at about 46 µM; actives 1.8% (n = 300,000); active = well fitted inhibition curve with a large enough effect; inconclusive = small, poorly fitted or top-dose-only effect, or effect the other way; inactive = flat fitted curve, though single readings scatter; tested in HEK293 cells; about a fifth of its hits are not listed in these tables; note: % is set by controls: 0 for no effect and ±100 for the full control effect; luciferase read-out
# RE007 growth inh = less growth of the S. pombe RE007 Vpr strain | S. pombe RE007 Vpr strain, BacTiter-Glo ATP luminescence, 24 h; control for the full effect not named in the record | Potency, µM (titrated, usually from 92.2 µM), for inactives: at the highest dose activity change, negative = less growth | actives 0.21% (n = 360,000); active = well fitted falling curve with a large enough effect; inconclusive = small, poorly fitted or top-dose-only effect; inactive = no such curve, though single readings can be large or run the other way;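 note: % is set by controls: 0 for no effect and ±100 for the full control effect; nearly all actives have a fitted effect of over 50% in size; the assay follows cell death caused by Vpr and the record does not say whether a fall means rescue or toxicity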
#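 Fission yeast RE007 carrying one integrated HIV-1 vpr copy, seeded at OD 0.01 in PMG+AL medium with 23 nL pinned compound. Grown 24 h at 30 degrees; viability read by BacTiter-Glo luminescence after 5 min.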
# Cruzain Triton = cruzain (T. cruzi) inhibition with detergent | P25779 | purified cruzain, Z-FR-AMC fluorescence, 0.01% Triton | Potency, µM, for the others: max response, negative = inhibition, actives largely listed as inhibitors | actives 0.43% (n = 200,000) | AID 1478; active = well fitted curve in the direction sought with a large enough effect; inconclusive = small, poorly fitted or top-dose-only effect, or another doubt; inactive = no such curve, though single readings can be large; an effect the other way counts as inactive or inconclusive;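 note: plate controls were neutral wells for no effect and buffer without enzyme for full effect; nearly all actives have a fitted effect of over 40% in size; top concentration of the series not given in the record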
# Target sequence (P25779 123-467 limits assumed): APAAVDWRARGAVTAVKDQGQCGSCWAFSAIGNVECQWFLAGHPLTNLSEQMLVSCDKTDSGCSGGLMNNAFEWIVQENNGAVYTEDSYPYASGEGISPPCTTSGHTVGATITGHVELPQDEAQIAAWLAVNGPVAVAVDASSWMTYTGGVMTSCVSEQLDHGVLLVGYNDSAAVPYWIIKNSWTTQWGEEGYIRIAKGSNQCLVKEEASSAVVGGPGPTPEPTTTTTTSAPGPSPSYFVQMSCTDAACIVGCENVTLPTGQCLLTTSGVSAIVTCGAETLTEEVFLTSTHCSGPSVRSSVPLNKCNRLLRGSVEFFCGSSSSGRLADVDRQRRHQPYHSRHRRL
#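 In this qHTS format, compounds are incubated with 1.5 nM cruzain for 15 min at room temperature before 2 uM Z-FR-AMC is added. Release of AMC is followed at 360/450 nm, and progress is taken as the 60 s fluorescence difference.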
# Lassa entry inh = blocks Lassa virus binding to or entry into cells; Lassa virus pseudotype entry inhibition, cell reporter; control for the full effect not named in the record; Potency, µM (top dose mostly 37.9 µM), for the others: top-dose activity change, negative = inhibition, actives largely listed as inhibitors; actives 1.2% (n = 300,000); AID 540256; active means well fitted inhibition curve with a large enough effect; inconclusive means small, poorly fitted or top-dose-only effect, or effect the other way; inactive means flat fitted curve, though single readings scatter; tested in HEK293 cells; note: % is set by controls: 0 for no effect and ±100 for the full control effect; nearly all actives have a fitted effect of over 50% in size; luciferase read-out
# NS1 inh = blocks influenza NS1 protein function | S. cerevisiae slowed by influenza A NS1, growth recovery by OD600 | Potency, µM (doses to about 46.1 µM), without a hit: at the top dose activity, positive = more growth | actives 0.4% (n = 270,000); note: actives are rising curves; nearly all actives have a fitted effect of over 50% in size
#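 S. cerevisiae expressing influenza A NS1, grown in glucose, washed, then diluted 1:100 into pH 6.0 -URA galactose medium with 23 nl compound. Growth recovery read as OD600; NS1-free strain serves as control.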
# 2A StopGo = lowers the luciferase signal of an FMDV 2A StopGo reporter; human cells with a luciferase reporter of 2A StopGo recoding; control for the full effect not named in the record; Potency, µM (series often up to 57.9 µM), inactives show at the highest dose signal change, negative = less light; actives 1.2% (n = 410,000); AID 1159524; active = well fitted falling curve with a large enough effect; inconclusive = small, poorly fitted or top-dose-only effect; inactive = no such curve, though single readings can be large or run the other way; tested in HEK293T cells; note: % is set by controls: 0 for no effect and ±100 for the full control effect; nearly all actives have a fitted effect of over 45% in size; luciferase light after 4 h
# SARS PLpro yeast = inhibitors of SARS-CoV papain-like protease in yeast. Potency, µM (top dose mostly 32.9 µM), for inactives: at the highest dose activity, positive = growth rescue. actives 0.19% (n = 330,000). S. cerevisiae expressing SARS-CoV PLpro, growth rescue; control for the full effect not named in the record; note: 0% is about no effect; nearly all actives have a fitted effect of over 55% in size; growth read by luminescence after 48 h
# Cruzain inh noDet = inhibitors of Trypanosoma cruzi cruzain without detergent. actives 2.3% (n = 200,000). purified cruzain, Z-FR-AMC fluorescence, no detergent. Potency, µM, for inactives: max response, negative = inhibition, most hits filed as inhibitors. P25779; active = well fitted curve in the direction sought with a large enough effect; inconclusive = small, poorly fitted or top-dose-only effect, or another doubt; inactive = no such curve, though single readings can be large; an effect the other way counts as inactive or inconclusive;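 note: plate controls were enzyme without inhibitor for no effect and buffer without enzyme for full effect; nearly all actives have a fitted effect of over 40% in size; top concentration of the series not given in the record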
#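 Purified cruzain at 1.5 nM, pre-incubated 15 min with compound at room temperature in 100 mM sodium acetate pH 5.5, 5 mM DTT, 0.00005% Triton X-100. Reaction started with 2 uM Z-FR-AMC; AMC fluorescence increase over 60 s gives rate.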
# * = called active by the depositor; ? = inconclusive; . = no result given; [ ] = another dose, or the depositor's remark. Unless noted, calls come from the whole dose curve; as a rule, active means well fitted rising curve with a large enough effect; inconclusive means small, poorly fitted or top-dose-only effect; inactive means no such curve, though single readings can be large or run the other way. Potency is the fitted concentration of half-maximal effect. An unsorted share of the library; about 4.5% have a hit in one of these screens.
SMILES,MARV entry inh,RE007 growth inh,Cruzain Triton,Lassa entry inh,NS1 inh,2A StopGo,SARS PLpro yeast,Cruzain inh noDet
CCOC(=O)c1cc(C)n(-c2ccc(Cl)cc2)c1C,-23.0%[46.1 µM],7.5%,.,-25.4%,-30.9%,-0.4%,-0.9%,.
COc1ccccc1C(=O)Nc1nnc(SCc2cc(=O)n3ccc(C)cc3n2)s1,.,.,2.5%,16.9%[46.1 µM],.,28.4%,.,3.1%
COc1ccc(OC)c(NC2c3ccccc3C(=O)N2Cc2ccc3c(c2)OCO3)c1 (centres undefined),-0.4%,6.1%,-2.6%,.,-33.9%,-3.4%,-9.0%,-17.2%
O=c1c2sc3ccccc3c2n(Cc2cccc(C(F)(F)F)c2)c(=O)n1Cc1ccc(F)cc1,2.0%[46.1 µM],.,7.1%,6.8%[46.1 µM],.,-0.1%,.,-1.2%
CC(NC(=O)c1cccc(Cl)c1)C1CC2CCC1C2 (centres undefined),-2.2%[46.1 µM],18.5%,.,-3.0%,-4.7%,9.4%,-0.3%,.
Cc1ccc(Cl)cc1N1C(=O)CC(C)(C)CC1=O,.,5.6%,.,.,-1.9%,-16.4%,-0.3%,.
Oc1nc(Nc2ccc(F)cc2)sc1/C=C1\C=Nc2ccccc21,?,4.1%,.,?,1.6%,-1.5%,-0.7%,.
COc1ccc(CCNC(=O)Cn2nnc(C(=O)Nc3cc(C)ccc3C)c2N)cc1OC,9.6%[46.1 µM],2.2%,.,5.7%[46.1 µM],13.3%,-19.7%,-2.6%,.
CC1(C)CC(=O)C(N=Nc2ccc3ncsc3c2)=C(O)C1,11.2%,5.3%,-5.9%,?,-122.0%,40.5%[activator],.,-7.7%
CC1CCCN(Cc2c(O)ccc3c(=O)c(-c4ccc(Cl)cc4)coc23)C1 (centres undefined),.,-5.7%,.,.,1.6%,-2.1%,1.5%,.
CC(=O)Nc1c(C)nn(-c2ccccc2)c1N1CCC(C(=O)Nc2cccc(C(F)(F)F)c2)CC1,.,.,-5.2%,-9.0%[46.1 µM],.,-24.0%,.,?
CC1CN(c2ncc(/C=N/NC(=O)c3ccccc3O)s2)CC(C)O1 (centres undefined),0.8%[46.1 µM],8.7%,.,-7.2%,.,-23.4%,13.5%,.
COc1ccccc1N1CCN(c2nc(C)cc(C)c2C#N)CC1,?,-16.5%,.,-19.0%[46.1 µM],-30.5%,-9.0%,-5.2%,.
O=C(COc1ccccc1Cl)NC(=S)Nc1ccccc1N1CCCC1,.,5.1%,.,.,12.6%,-21.8%,-3.2%,.
CC(=O)N(Cc1cc(=O)[nH]c2ccccc12)c1ccccc1,4.1%,3.3%,2.0%,0.5%,0.8%,-11.9%,-0.8%,-2.9%
CCCNc1nc(C)nc2c1cnn2CCc1ccccc1,22.8%,-17.9%,-3.4%,14.7%,-83.1%,21.2%,-9.4%,-5.1%
O=C(Nc1ncccc1O)C1CCN(S(=O)(=O)c2ccc3ccccc3c2)CC1,4.0%,1.3%,.,-19.4%,.,0.0%,8.9%,.
O=C(O)CCc1ccc(-c2ccc(F)cc2)n1NC(=O)c1ccco1,?,-9.8%,1.9%,3.8%,2.6%,-5.6%,0.9%,5.1%
CC(=O)C1C(=O)CC(C)(O)C(C(C)=O)C1c1ccc(N(C)C)cc1 (centres undefined),1.8%,-7.0%,0.3%,7.3%,0.0%,-13.1%,0.3%,-5.6%
CCOC(=O)C1=C(CS(=O)(=O)c2ccc(C)cc2)NC(=O)NC1c1ccc(C(C)C)cc1 (centres undefined),?,.,-10.1%,?,.,-24.1%,.,8.7%
CCn1c(-c2ccc3[nH]c(C)c(C)c3c2)n[nH]c1=S,-5.2%,-1.5%,-13.4%,?,-50.2%,.,-1.9%,-7.3%
Cc1ccccc1C(=O)Nc1ccc(C(=O)O)cc1NC(=O)c1ccccc1C,.,0.1%,.,.,-0.6%,8.3%,0.3%,.
C/C(=N\N=C(N)N)c1ccc(Cl)c(Cl)c1,?,-8.4%,.,1.9%,3.1%,?,-0.2%,.
COc1ccccc1NC(=O)Cc1csc(NC(=S)Nc2ccc(C)cc2)n1,4.5%,1.8%,-2.3%,?,?,?,1.1%,?
O=C(COC(=O)c1ccc(Cl)nc1)Nc1ccc2ccccc2c1,11.0%,-18.4%,.,1.5%,.,-11.1%,-3.0%,.
COc1cccc(C2CC(c3cccs3)Nc3ncnn32)c1 (centres undefined),-21.2%,31.1%,3.3%,-25.7%,-0.9%,-18.5%,?,4.0%
Cc1cc(C)n(CC(O)COc2ccc(Cl)cc2)n1 (centres undefined),4.8%,-3.1%,.,?,-0.6%,-15.7%,2.6%,.
CCc1ccc(OCC(=O)N(C)CCC#N)c(Br)c1,6.1%,-1.9%,6.3%,6.7%,-4.9%,18.8%,1.1%,0.5%
O=C(NCCNCC(O)COc1ccc(O)cc1)N1CCOCC1 (centres undefined),?,3.6%[18.4 µM],4.1%,.,0.4%,-16.3%,.,5.2%
CC(=O)CSc1nnc(C(F)(F)F)n1C,-4.2%,19.6%,.,16.0%,5.2%,15.1%,-1.8%,.
COc1ccc(-c2noc(COc3ccc(C)c(C)c3)n2)cc1OC,8.7%,-25.2%,-3.3%,3.6%,3.7%,-29.6%,0.0%,?
COC(=O)c1ccc(CSc2n[nH]c(C)n2)o1,1.1%,5.9%,-2.1%,-3.1%,0.8%,0.9%,-6.6%,9.5%
Cc1nn(Cc2c(Cl)cccc2Cl)c(C)c1N,-21.7%,4.5%,1.6%,1.2%,4.4%,-10.7%,-17.1%,-18.0%
C=C1CCN([C@H](C(=O)OCc2cccc(C)c2)C(C)C)S(=O)(=O)c2ccccc21,.,-4.6%,.,.,-41.2%,-20.4%,-4.2%,.
Cc1cc(C(=O)CN2C(=O)NC(c3ccccc3)(c3ccccc3)C2=O)c(C)n1Cc1ccccc1,?,17.3%,-1.0%,?,26.9%,-18.9%,-3.1%,10µM*
CSc1nc2c(cc1C#N)C(=O)CC(C)(C)C2,?,?,.,?,-9.0%,-11.5%,-0.5%,.
CCCCOc1ccc(C(=O)Nc2cccc(-c3nc4cccnc4s3)c2)cc1,-7.6%[46.1 µM],.,-3.6%,-3.5%[46.1 µM],.,?,.,7.3%
CCOC(=O)/C(=C\c1ccc(OC)c(OC)c1)C(=O)c1cccnc1,6.6%[46.1 µM],-26.5%,.,-29.4%,-18.5%,?,-1.4%,.
Cc1nnc(N2C(=O)c3cccc4cccc(c34)C2=O)s1,?,-15.2%,-5.3%,?,3.5%,-18.7%,-8.9%,-4.7%
CN(Cc1ccon1)C(=O)CC1C(=O)NCCN1Cc1cccc(F)c1F (centres undefined),?,5.8%,.,0.9%,12.7%,-13.3%,-1.4%,.
CC(C)CC(=O)Nc1cc2c3c(c1)CCN3C(=O)CC2,.,-16.3%,.,.,-6.1%,-3.9%,-1.4%,.
CCC(=O)N1c2ccccc2CC1C(=O)NCCc1ccc(OC)c(OC)c1 (centres undefined),.,.,1.1%,4.8%[46.1 µM],.,25.2%,.,1.4%
CC(C)c1ccc(N2C(=O)CC(=O)NC2=O)cc1,4.5%[46.1 µM],-12.9%,.,19.2%[46.1 µM],4.0%,-6.1%,4.6%,.
O=C(Nc1ccccc1)c1cccc2c(=O)c3c([nH]c12)CCCC3,0.4%[46.1 µM],.,-5.7%,1.9%[46.1 µM],.,-13.1%,.,?
Cc1c(=O)n(OCc2ccccn2)c2ccccc2[n+]1[O-],13.4%,-1.3%,-4.4%,-16.7%,4.0%,4.3%,1.2%,-6.5%
O=C(CN(c1ccccc1)S(=O)(=O)c1ccc(Cl)cc1)Nc1cccnc1,-5.1%[46.1 µM],5.9%,.,?,-6.0%,-0.1%,-3.3%,.
NC(=O)CN1C(=O)C2C3C=CC(C3)C2C1=O (centres undefined),0.4%,-0.9%,4.9%,4.8%,3.4%,-3.7%,13.7%,-6.2%
O=C(NNC(=O)c1ccc(-c2ccccc2)cc1)Nc1ccccc1F,-1.4%,-2.1%,.,3.3%,9.2%,5.1%,-2.5%,.
CCC(NC(=O)c1ccccc1NC(=O)c1ccco1)C(=O)NC1CCCCC1 (centres undefined),-9.8%,1.4%,-1.2%,8.8%,4.0%,-4.8%,-0.4%,22.7%
O=C(NC(=S)Nc1ccc(N2CCOCC2)cc1)c1cccc(Cl)c1Cl,-1.9%[46.1 µM],-5.9%,.,16.3%[46.1 µM],-4.0%,-3.8%,1.3%,.
CCO[C@@H]1OC(C(=O)N2CCN(Cc3ccccc3)CC2)=C[C@H](C)[C@H]1CCCO,.,-9.3%,.,.,2.6%,-23.7%,0.0%,.
C[n+]1cn(Cc2ccc(C#N)cc2)c2ccccc21,.,-20.5%,.,.,0.3%,-2.2%,-0.4%,.
NC(=O)CC(NC(=O)Cc1ccc(Cl)cc1)c1ccc(NC2CCCCC2)c([N+](=O)[O-])c1 (centres undefined),.,-15.4%,.,.,6.0%,0.0%,-2.2%,.
Nc1nc(SCc2cccc([N+](=O)[O-])c2)n[nH]1,.,5.1%,.,.,1.9%,-4.1%,-1.0%,.
CCOC(=O)c1scc(-c2ccc(C)cc2)c1S(=O)(=O)Nc1cc(C)ccc1C,.,.,-0.3%,2.4%[46.1 µM],.,21.5%,.,-15.8%
COc1ccccc1N1CC(C(=O)Nc2ccccc2N2CCCC2)CC1=O (centres undefined),5.8%[46.1 µM],5.7%,.,9.0%,.,-3.3%,-6.3%,.
CCc1nc2ccccc2c(NC(=O)CN2CC(C)CC(C)C2)c1C (centres undefined),?,-6.4%,.,-9.2%[46.1 µM],11.3%,-9.3%,2.7%,.
Cc1nn(CC(=O)N2CCN(c3cccc(Cl)c3)CC2)c(=O)c2c1sc1ccccc12,-7.5%[46.1 µM],.,-5.4%,-18.0%[46.1 µM],.,2.1%,.,-18.6%
CN1CCN(C(=O)/C=C/c2ccc([N+](=O)[O-])cc2)CC1,?,.,-4.9%,-9.1%,20.2%,-11.3%,6.5%,0.2%
